# Bioassay records as filed in PubChem.
# Beta2AR agonist – agonists of human beta-2 adrenergic receptor inducing internalization; P07550; Am2.2-beta2AR cells, FAP receptor internalization, flow cytometry; reference of the scale not given here; response, % (no concentration beside the values); 340,000 tested, 0.43% active; AID 504454;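 active = response above a set limit, near 3 SD of response in nonfluorescent compounds, cut at about 42% in these data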;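 also: stock transfer was 100 nL into about 11 µL; a reference agonist was the positive control; negative values mostly stem from fluorescent compounds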
# Calb FLC – C. albicans growth modulation with fluconazole; growth inhibition, % (test concentration not listed); AID 1979; 300,000 tested, 0.57% active; C. albicans CaCi-2 (fluconazole-resistant clinical isolate) + fluconazole, Alamar Blue growth, 48 h;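 active = most replicates above 75%; inconclusive = exactly half above 75%; inactive = most below 75%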;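 also: all wells also contain fluconazole at 8 µg/ml as a sub-toxic cotreatment; 0% = median of DMSO wells and 100% = median of geldanamycin control wells; wells of about 8 µL received 7.5 nL stock; the first replicate is given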
# A1 inh – inhibitors of the anti-apoptotic protein A1, read as caspase activation | MEF A1-2A-BIM cells, Caspase-Glo 3/7 luminescence, 3 h; percent of clofoctol response, vehicle zero | 330,000 tested, 0.066% active | AID 2462 | caspase activation, % (no concentration beside the values);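 active = over half of replicate activation scores above 10%, or exactly half above 10 with the replicate mean above 10; inconclusive = replicate mean below 10 yet half the replicates above 10; inactive = over half of replicates below 10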;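 also: wells of about 30 µL received 50 nL stock; many hits fall short of the cut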
# ALR H2O2 inh – human ALR oxidase inhibition via reduced H2O2. inhibition, % (concentration not given with the values). purified ALR, DTT oxidation, H2O2 HRP-luminol luminescence. P55789. AID 485317. 290,000 tested, 3.8% active;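 active = mean and each replicate at 75% or more; inconclusive = only one of the two met; inactive = neither met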;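 also: stock transfer was 7.5 nL into about 7.5 µL; 0% = neutral wells and 100% = wells with inactivated enzyme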
# rRNA inh HTS – inhibitors of bacterial rRNA selective over humanized ribosomes; GFP signal change (wild-type ribosome), % (concentration not given with the values); E. coli WT GFP vs humanized-ribosome RFP mutants, fluorescence, 24 h; stronger effect = lower value; DMSO median 0, no signal -100; AID 720706; 350,000 tested, 1.6% active;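 active = significant combined selectivity score with lowered wild-type GFP, culture density cut under 30%, mutant RFP and density less affected; inactive = any of these conditions unmet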; also: one replicate is shown; some compounds called inactive have numbers as strong as hits
# Beta cell apopt – beta cell apoptosis inhibition; INS-1E cytokine-induced death, ATP luminescence, 48 h; percent of positive-control rescue, neutral wells zero; AID 435005; 300,000 tested, 0.8% active; protection from apoptosis, % (no concentration beside the values);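 active = all replicates at 75% or more, or half of them and the mean; inconclusive = half reach 75% but not the mean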;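 also: 0% = cytokine-treated negative control wells and 100% = positive control rescue; higher means more ATP so stronger rescue from cytokine killing; wells of about 40 µL received 100 nL stock; the first replicate is given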
# T cruzi repl – blocks replication of Trypanosoma cruzi | T. cruzi beta-gal in NIH3T3, luminescence, 90 h | inhibition, % (no concentration beside the values) | 300,000 tested, 1.4% active | AID 1885;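 active = mean inhibition across valid replicates above about 55%, limit read from the data; inconclusive = mean below that limit but half or more replicates reach it; inactive = mean below it, under half of replicates reach it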;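 also: signal also drops with host cell toxicity which is not excluded here; 0% = plate median of DMSO wells and 100% = zero luminescence signal; higher percent means less beta-gal luminescence so fewer parasites; stock transfer was 50 nL into about 50 µL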
# LANA-H2B inh – blocks KSHV LANA binding to histone H2A/H2B. Q9QR71. 320,000 tested, 0.6% active. AID 2629. inhibition, % (concentration not given with the values). cell-free LANA-H2A/H2B peptide, fluorescence polarization; in the data active = inhibition mostly above about 10%, no sharp cut-off; inactive = mostly below about 6.7%;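 also: stock transfer was 7.5 nL into about 10 µL; 0% = median of vehicle wells and 100% = median of positive control wells; one replicate is shown; the record names a cut of 25% in any replicate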
# Target sequence (Q9QR71 whole entry, looked up): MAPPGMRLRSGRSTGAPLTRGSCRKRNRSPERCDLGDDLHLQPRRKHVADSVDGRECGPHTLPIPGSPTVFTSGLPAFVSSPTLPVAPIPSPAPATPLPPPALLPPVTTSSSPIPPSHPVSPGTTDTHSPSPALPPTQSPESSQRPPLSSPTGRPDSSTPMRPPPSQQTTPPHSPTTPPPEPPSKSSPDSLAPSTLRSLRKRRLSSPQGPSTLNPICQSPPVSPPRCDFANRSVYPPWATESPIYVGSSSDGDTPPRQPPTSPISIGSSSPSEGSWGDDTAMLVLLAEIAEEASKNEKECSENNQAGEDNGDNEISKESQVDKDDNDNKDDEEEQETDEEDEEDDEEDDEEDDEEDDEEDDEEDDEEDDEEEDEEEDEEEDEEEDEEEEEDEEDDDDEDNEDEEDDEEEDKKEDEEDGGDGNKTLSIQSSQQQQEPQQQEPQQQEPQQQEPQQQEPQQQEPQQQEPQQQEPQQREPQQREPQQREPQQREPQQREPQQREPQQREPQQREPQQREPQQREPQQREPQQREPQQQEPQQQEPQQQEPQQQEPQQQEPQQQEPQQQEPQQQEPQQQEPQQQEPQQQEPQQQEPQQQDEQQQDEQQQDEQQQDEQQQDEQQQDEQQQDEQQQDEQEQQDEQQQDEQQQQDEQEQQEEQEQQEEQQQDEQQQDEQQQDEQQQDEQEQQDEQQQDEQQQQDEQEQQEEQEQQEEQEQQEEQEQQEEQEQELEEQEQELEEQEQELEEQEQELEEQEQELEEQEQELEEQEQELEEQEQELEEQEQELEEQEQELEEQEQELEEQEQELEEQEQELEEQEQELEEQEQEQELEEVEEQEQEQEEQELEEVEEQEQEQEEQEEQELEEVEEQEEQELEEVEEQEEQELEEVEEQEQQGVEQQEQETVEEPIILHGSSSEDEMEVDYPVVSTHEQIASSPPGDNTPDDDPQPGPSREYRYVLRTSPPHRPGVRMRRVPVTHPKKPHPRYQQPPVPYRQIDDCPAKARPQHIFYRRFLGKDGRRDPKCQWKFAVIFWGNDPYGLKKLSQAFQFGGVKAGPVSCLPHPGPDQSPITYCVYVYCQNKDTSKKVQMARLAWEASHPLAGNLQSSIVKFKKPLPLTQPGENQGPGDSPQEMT
# rRNA inh HTS OD600 – also measured in rRNA inh HTS; calls as there; OD600 change, %; measured here: OD600 growth;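 optical density of the mix in the first replicate; 0 = DMSO median and -100 = no signal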
# rRNA inh HTS RFP – also measured in rRNA inh HTS; calls as there; RFP signal change, %; measured here: RFP humanized mutant strains;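 first replicate; 0 = DMSO median and -100 = no signal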
# The depositor's hits bear a star; ? = inconclusive; . = not tested or not shown. This is a subset; the hit share may differ from the screen's.
SMILES,Beta2AR agonist,Calb FLC,A1 inh,ALR H2O2 inh,rRNA inh HTS,rRNA inh HTS OD600,rRNA inh HTS RFP,Beta cell apopt,T cruzi repl,LANA-H2B inh
CCCc1[nH]nc2c1C(c1ccccc1OC)C(C#N)=C(N)O2 (centres undefined),12,0,0.2,42,.,.,.,.,-8,1.0
COc1ccc(NS(=O)(=O)c2cc(NC(=O)c3ccc(C)s3)ccc2N2CCOCC2)cc1,4,10,0.6,-7,-28,-40,-15,22,21,-2.7
O=C(Nc1nc(-c2cccs2)cs1)c1cccc(S(=O)(=O)N2CCCCCC2)c1,2,-4,-1.0,7,.,.,.,2,44,2.1
COc1ccc(Br)c(C(=O)Nn2c(C)nc3ccccc3c2=O)c1,-4,-4,-0.1,11,.,.,.,-6,-12,1.6
O=C1c2ccccc2C(Nc2ccccc2)N1c1cccnc1 (centres undefined),-16,0,.,-17,-1,4,-5.1,-2,0,-5.8
Cc1cc(C(=O)N2CCCC(N3CCN(c4cccc(Cl)c4)CC3)C2)nc(C)n1 (centres undefined),0,5,0.4,.,8,6,-0.5,-7,-7,-0.3
COc1ccc(N2CCN(c3nc4ccccn4c(=O)c3C=O)CC2)cc1,4,-2,-0.3,?,.,.,.,1,-1,1.2
O=C(NC12CC3CC(CC(C3)C1)C2)c1cncc(Br)c1,-11,-2,0.3,-3,-4,-10,-0.7,-3,-7,-4.9
COc1ccc(N2CCN(C(=O)c3ccc4nc(N5CCCCC5)sc4c3)CC2)cc1,-4,10,-0.5,14,-12,-34,-0.5,1,6,6.2
COc1ccccc1NC(=O)COc1cccnc1[N+](=O)[O-],4,.,0.0,.,6,14,-0.1,-2,.,-3.7
CCOc1ccc(S(=O)(=O)N2CCN(C(=O)c3ccc(C)c(S(=O)(=O)N4CCOCC4)c3)CC2)cc1,7,.,0.9,-9,.,.,.,8,.,-3.6
CCC(=O)N1CCN(c2ccc(Cl)cc2NC(=O)c2cccc([N+](=O)[O-])c2)CC1,-11,-1,0.7,-8,18,10,2.0,4,22,1.3
COc1ccc(F)c(-c2nc(CN3CCC(c4ccccc4)CC3)c(C)o2)c1,5,-38,0.8,18,-30,-58,25,.,50,1.1
COc1ccc(/C=N/NC(=O)c2ccc(O)cc2)cc1CN1CCCc2ccccc21,7,-4,0.3,.,.,.,.,5,5,-2.5
CC(C)n1c(NCc2cccs2)nc2ccccc21,-7,65,0.3,98*,.,.,.,-6,-3,-1.9
CC(C)C1CC(C(=O)Nc2ccccc2)C(=O)O1 (centres undefined),-1,-5,-0.1,-5,-3,-6,-0.7,3,2,-2.7
Cc1ccc(CSC(Nc2ccc(F)cc2)=C(C#N)C#N)cc1,8,1,-0.5,-8,.,.,.,117*,-27,-0.6
FC(F)Oc1ccc(NC(=S)NCC2COc3ccccc3O2)cc1 (centres undefined),-5,-36,0.0,3,.,.,.,-7,1,-1.5
CCc1c(C(=O)O)[nH]c2ccc(Br)cc12,3,2,1.1,8,.,.,.,-5,-21,-1.2
O=C(CSc1nc(O)c(-c2ccccc2)c(=O)[nH]1)N1CCOCC1,6,-23,0.2,25,5,11,0.7,-2,0,3.7
CC(C)CC1NC(=O)c2cc(Cl)ccc2-n2c1nc1cc(F)ccc1c2=O (centres undefined),.,.,-0.4,6,-9,-21,-18,2,.,0.4
CCN1CCN(C(=O)c2ccc(COc3cccc(Cl)c3)o2)CC1,-16,14,0.9,-2,3,-2,-1.3,5,28,-3.7
COc1ccc(C(=O)NC(=S)NNC(=O)c2ccc(O)cc2)cc1[N+](=O)[O-],-6,-10,0.2,97*,12,-20,-3.6,0,4,1.2
COc1ccccc1C(=O)NNC(=O)c1cccc([N+](=O)[O-])c1,1,-1,-0.1,3,.,.,.,1,-11,3.5
Cc1[nH]n(C(N)=S)c(=O)c1N=Nc1cc(-c2ccc(Br)cc2)[nH]n1,-2,53,-0.1,99*,6,0,-1.1,14,-24,-2.6
COc1ccc(C(=O)OCCc2cc3ccccc3c(=O)o2)cc1,-3,.,-0.7,-5,-29,-43,-13,0,.,3.3
O=C(CSc1nn(-c2ccc(F)cc2)c(=S)s1)NC1CCS(=O)(=O)C1 (centres undefined),6,14,1.3,8,9,10,21,-2,-1,-1.1
CSCCC(NC(=O)c1ccccc1)C(=O)NCc1ccco1 (centres undefined),8,7,0.6,-1,.,.,.,-1,-6,7.0
CCCn1c(N)c(NCCN2CCOCC2)c(=O)n(CC(=O)NCc2ccccc2)c1=O,-2,-15,-0.7,1,16,5,-0.7,-5,-13,-7.6
CCCn1nc(C(=O)Nc2nc(-c3ccccn3)cs2)c2ccccc2c1=O,12,.,-0.8,.,.,.,.,66,.,-2.8
COc1ccc(CCC(=O)Nc2nc3ccccc3[nH]2)cc1OC,-12,?,0.1,.,.,.,.,1,-9,-3.4
Cc1cc(C)c(C)c(S(=O)(=O)N2CCN(C(=O)c3cc(S(=O)(=O)N4CCOCC4)ccc3F)CC2)c1C,3,.,1.8,-8,-4,-3,1.8,-2,.,-2.4
CCn1c(CCc2ccccc2)nnc1SCC(N)=O,-2,-2,-0.1,-3,8,9,2.3,-2,-9,-2.0
Cc1ccc(N2CC(C(=O)N/N=C/c3c(F)cccc3Cl)CC2=O)cc1 (centres undefined),-3,-1,1.6,-4,14,17,-0.5,-1,4,-2.9
CCN1CCN(CCC(=O)Nc2ccc(Br)cc2)CC1,8,24,-0.6,-5,17,-6,-1.7,-3,43,2.8
CN(C(=O)CS(=O)(=O)c1cn(CC(=O)N2CCCCC2)c2ccccc12)c1ccccc1,4,-2,-0.4,-29,.,.,.,.,-4,10
CCOC(=O)C1=C(C)N(C)C(=O)NC1c1c(O)ccc2ccccc12 (centres undefined),7,-9,2.4,-18,0,0,1.4,-4,0,-5.1
Cc1ccc(NC(=O)CN2C(=O)S/C(=C/c3ccncc3)C2=O)cc1,1,-11,?,-20,18,14,-2.3,.,-15,0.3
CCCCCc1c(O)nc(SCCN(CC)CC)[nH]c1=O,2,-2,0.5,9,15,7,2.0,0,-12,-0.8
CCN(CC1CCCO1)C(=O)CCc1nnc(CCc2ccccc2OC)o1 (centres undefined),1,-1,0.3,0,.,.,.,2,-6,-2.4
Nc1ccc(C(=O)NCCCCCCNC(=O)c2ccc(N)cc2)cc1,-10,5,2.0,-4,11,16,-0.6,1,2,1.2
CCOC(=O)c1cc(-c2ccccc2)n(CC2CC(c3ccc(OC)cc3)=NO2)n1 (centres undefined),2,-3,1.0,.,-9,-3,-1.2,-4,18,-1.0
Cc1ccccc1NC(=O)CON=C(N)c1ccccc1,5,.,1.1,-2,.,.,.,0,.,-2.0
Cn1cc(S(=O)(=O)N2CCN(c3cccc(C(F)(F)F)c3)CC2)c(=O)n(C)c1=O,-5,16,-0.4,0,-6,-3,-0.8,-4,-6,2.8
COc1ccc2c(c1)O[C@@H](c1cccc(C(F)(F)F)c1)[C@H](OC(=O)Nc1ccc(OC(F)F)cc1)C2=O,.,.,?,-18,.,.,.,10,.,-2.0
CCC(=O)N1CCc2cc(Br)cc(S(=O)(=O)NCc3ccccc3OC)c21,-14,-7,0.2,0,4,8,-4.3,6,6,6.3
Cc1ccc2nc(-c3ccc(NC(=O)CCN4C(=O)c5ccccc5C4=O)cc3)sc2c1,15,-8,-4.3,63,12,11,6.6,1,-13,-3.5
CCOC(=O)C1=C(c2ccccc2)NC(=S)NC1c1ccc(Cl)c([N+](=O)[O-])c1 (centres undefined),.,-1,-1.8,.,.,.,.,-6,20,2.1
O=C(NCCOc1ccccc1Cl)c1cc(F)c(F)cc1Cl,-2,-25,0.8,3,-18,-21,10,1,0,-6.1
COc1ccccc1NC(=O)Nc1ccnn1C1CCCCC1,-1,2,-0.2,-4,.,.,.,-3,3,-5.1
# Next part.
SMILES,Beta2AR agonist,Calb FLC,A1 inh,ALR H2O2 inh,rRNA inh HTS,rRNA inh HTS OD600,rRNA inh HTS RFP,Beta cell apopt,T cruzi repl,LANA-H2B inh
O=C(CNC(=O)c1ccc(Br)o1)NCc1ccc2c(c1)OCO2,0,-14,0.7,-2,.,.,.,-8,4,-2.6
CC(=O)c1c(C)nc2ccccn12,-1,-6,-0.2,-2,6,12,0.4,-1,-21,1.7
COc1ccc(/C=C/c2nc3cc(-c4ccccc4)ccc3o2)cc1O,10,10,0.0,-3,2,3,-12,3,-7,2.2
Cc1ccc2cc(CN(CC3CCCO3)S(=O)(=O)c3c(C)ccc4nsnc34)c(=O)[nH]c2c1 (centres undefined),1,-18,-0.2,0,.,.,.,-1,8,-1.2
CCCn1c(=O)[nH]c(=O)c2c1nc(-c1ccc(OC(F)(F)C(F)C(F)(F)F)cc1)n2CCOC (centres undefined),3,-2,-0.4,-31,.,.,.,16,29,2.4
COc1ccc(Br)cc1S(=O)(=O)N1CC(C)OC(C)C1 (centres undefined),-16,-8,2.3,-1,.,.,.,-6,10,1.2
Cc1csc(NC(=O)c2cc(-c3ccncc3)nc3ccccc23)n1,8,6,0.1,0,0,-6,-4.2,-6,-6,-2.3
O=C(NCc1cccnc1)C1CCC(CNS(=O)(=O)c2ccc(Cl)cc2)CC1 (centres undefined),-3,3,-0.4,-8,8,8,-1.9,1,-13,-4.0
CCCCSc1nnc(NC(=O)CCc2ccccc2)s1,-4,5,-0.2,-6,.,.,.,1,14,3.3
CCOC(=O)C(NC(=O)c1ccc(OC)cc1)(Nc1cc(C)on1)C(F)(F)F (centres undefined),-3,2,-0.9,-6,.,.,.,-2,9,0.9
COc1ccccc1CN(C)C(=O)c1cc(C)nc2ccccc12,0,1,-0.5,.,-3,-9,-2.3,-2,-13,-0.4
CCN1CCN(c2nc(Nc3ccc(OC)cc3)nc(N)c2[N+](=O)[O-])CC1,0,-3,0.5,5,4,1,0.1,.,-16,2.4
O=C(CCSc1ccc(Br)cc1)c1ccc(O)cc1,1,-6,0.2,.,-67,-81,-21,-17,24,0.8
CCCCNc1cc(=O)n(C)c(=O)[nH]1,-1,-5,-1.4,.,11,16,1.1,-2,-12,3.1
O=S(=O)(Nc1ccc(-c2nc3cccnc3s2)cc1)c1cccs1,-5,-2,.,-15,-3,4,-4.3,11,-39,1.9
CCCc1nc2ccccc2c(=O)n1-c1ccc(C(=O)OCC)cc1,4,13,-1.3,14,-5,-4,-2.8,-1,8,-0.4
CCC(=O)NNc1cccc(Cl)n1,2,11,1.5,-4,.,.,.,-5,-18,1.3
CC1CCCCC1NC(=O)COC(=O)c1ccc2ccccc2n1 (centres undefined),1,22,0.1,-5,10,3,-1.8,-16,-12,-1.2
O=c1c2ccccc2nc(-c2ccc(F)cc2)n1NCc1ccccc1O,7,9,0.2,-6,7,6,2.4,-3,11,-2.3
CN(c1ccccc1)S(=O)(=O)c1cccc(C(=O)Nc2nn[nH]n2)c1,3,6,1.3,2,12,4,1.0,-2,-6,2.6
